PME-1 primary: blocks human protein phosphatase methylesterase 1; inhibition, % at 5.9 µM; recombinant PME-1, FP-Rh probe fluorescence polarization; Q9Y570; 320,000 compounds, 0.53% hits; AID 2130;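 active = inhibition above the campaign mean of all compounds plus 3 SD, cut at about 26% in these data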;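 note: competitive labeling of PME-1 active site by serine hydrolase directed probe; 0% = PME-1 with DMSO and 100% = wells lacking PME-1 enzyme; inhibitors block probe labeling so polarization falls and inhibition rises; many of its hits are not listed in these tables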
LYPLA2 inh: LYPLA2 (human) inhibition in PME1 counter-screen | O95372 | recombinant LYPLA2, FP-Rh probe fluorescence polarization | inhibition, % at 5.9 µM | 320,000 compounds, 0.38% hits | AID 2177;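 active = inhibition above the screen-wide mean plus 3 SD, limit set per campaign, cut at about 26% in these data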;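 note: 0% = LYPLA2 with DMSO and 100% = wells lacking LYPLA2 enzyme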
Target sequence (O95372 whole entry, looked up): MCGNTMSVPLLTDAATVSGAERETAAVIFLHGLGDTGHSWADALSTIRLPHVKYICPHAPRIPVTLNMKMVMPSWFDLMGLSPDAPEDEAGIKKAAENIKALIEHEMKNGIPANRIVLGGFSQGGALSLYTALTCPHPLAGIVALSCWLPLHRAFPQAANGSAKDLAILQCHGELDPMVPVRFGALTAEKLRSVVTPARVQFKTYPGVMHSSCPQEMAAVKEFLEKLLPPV
GSTO1 inh: counter-screen for RBBP9 inhibitors: inhibitors of human GSTO1 | P78417 | recombinant GSTO1, activity-based probe fluorescence polarization | inhibition, % at 5.96 µM | 300,000 compounds, 1.1% hits | AID 1974;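 active = inhibition above the campaign mean inhibition plus 3 SD, cut at about 35% in these data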;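 note: 0% = GSTO1-1 with DMSO and 100% = wells lacking GSTO1-1 enzyme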
Target sequence (P78417 whole entry, looked up): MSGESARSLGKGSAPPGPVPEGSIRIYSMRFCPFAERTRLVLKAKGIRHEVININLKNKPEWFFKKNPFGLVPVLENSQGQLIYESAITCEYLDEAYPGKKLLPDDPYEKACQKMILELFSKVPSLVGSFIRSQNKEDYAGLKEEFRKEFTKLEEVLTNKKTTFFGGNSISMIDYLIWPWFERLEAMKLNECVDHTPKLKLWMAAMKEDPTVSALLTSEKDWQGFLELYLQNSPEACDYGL
PAFAH1B2 inh: PAFAH1B2 (human) inhibition. P68402. recombinant PAFAH1B2, FP-rhodamine activity probe, fluorescence polarization. inhibition, % at 3.39 µM. 340,000 compounds, 1.2% hits. AID 492953;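 active = inhibition above the mean of all tested compounds plus 3 SD, cut at about 24% in these data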;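 note: 0% = enzyme with DMSO and 100% = wells lacking PAFAH1B2; many of its hits are not listed in these tables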
Target sequence (P68402 whole entry, looked up): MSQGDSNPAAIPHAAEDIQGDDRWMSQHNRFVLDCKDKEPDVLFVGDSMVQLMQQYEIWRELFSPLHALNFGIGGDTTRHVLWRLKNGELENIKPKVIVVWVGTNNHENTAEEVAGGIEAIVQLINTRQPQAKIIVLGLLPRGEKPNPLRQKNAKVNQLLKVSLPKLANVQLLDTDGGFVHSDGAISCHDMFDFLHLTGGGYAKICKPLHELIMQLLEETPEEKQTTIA
PAFAH2 FP inh: PAFAH2 (human) inhibition; recombinant PAFAH2, FP-rhodamine activity probe, fluorescence polarization; inhibition, % at 3.39 µM; 340,000 compounds, 0.99% hits;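 active = inhibition above the mean over all tested compounds plus 3 SD, cut at about 30% in these data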;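 note: inhibitors block probe labeling of enzyme so polarization drops; 0% = enzyme with DMSO and 100% = wells lacking PAFAH2 protein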
LYPLA1 inh: counter-screen for PME1 inhibitors: inhibitors of human LYPLA1. O75608. inhibition, % at 5.9 µM. recombinant LYPLA1, FP-Rh probe fluorescence polarization. 320,000 compounds, 0.16% hits;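 active = inhibition above the mean of all tested compounds plus 3 SD, set per campaign, cut at about 14% in these data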;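 note: inhibitors block serine hydrolase probe labeling of LYPLA1 so polarization falls; 0% = enzyme with DMSO and 100% = wells lacking LYPLA1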
Target sequence (O75608 whole entry, looked up): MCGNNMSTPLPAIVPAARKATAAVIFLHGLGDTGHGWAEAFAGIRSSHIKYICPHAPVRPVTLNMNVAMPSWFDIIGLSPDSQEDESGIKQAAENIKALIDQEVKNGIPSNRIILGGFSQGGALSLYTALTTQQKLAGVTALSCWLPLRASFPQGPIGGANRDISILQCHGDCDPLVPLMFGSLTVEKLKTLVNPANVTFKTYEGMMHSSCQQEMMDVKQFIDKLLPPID
PAFAH1B3 inh: blocks human PAF acetylhydrolase 1B catalytic subunit 3; 340,000 compounds, 0.28% hits; inhibition, % at 3.39 µM; recombinant PAFAH1B3, FP-rhodamine probe, fluorescence polarization; Q15102; AID 492972;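 active = inhibition above the screen-wide average of all tested compounds plus 3 SD, cut at about 25% in these data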;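 note: 0% = enzyme with DMSO only and 100% = wells lacking PAFAH1B3 protein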
PAD4 FP inh: PAD4 (human) enzyme inhibition | Q9UM07 | recombinant PAD4, RCA probe fluorescence polarization | inhibition, % at 6.36 µM | 330,000 compounds, 0.41% hits | AID 485272;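 active = percent inhibition above a cutoff equal to the mean of all tested compounds plus 3 SD, cut at about 15% in these data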;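 note: 0% = PAD4 with RCA probe and DMSO and 100% = probe without PAD4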
* marks the source's active call; other numbers are inactive results; nt = no result given.

SMILES | PME-1 primary | LYPLA2 inh | GSTO1 inh | PAFAH1B2 inh | PAFAH2 FP inh | LYPLA1 inh | PAFAH1B3 inh | PAD4 FP inh
C=CCNc1nc(C(=O)OCC(=O)c2cccc(Br)c2)cs1 | 1 | -4 | nt | -2 | 10 | -4 | -1 | -2
O=C(COc1ccccc1)N1CCCCCCC1 | 6 | 1 | 6 | 1 | -1 | 0 | 2 | -2
COc1ccc(NS(=O)(=O)c2cccc(C(=O)NNC(=O)c3ccc(C)o3)c2)cc1 | -2 | 0 | nt | 7 | 9 | -4 | -2 | -8
CCOC(=O)C1CCN(CC(C)(C)NS(=O)(=O)c2ccc(C)cc2)CC1 | -5 | -4 | -1 | 0 | -13 | -2 | -4 | 2
O=C(Nc1cc(S(=O)(=O)Nc2ccccc2Cl)ccc1O)c1ccc(F)cc1F | nt | nt | nt | 6 | 65* | nt | 10 | -2
COc1ccc(CN(C)C(=O)c2cccc(NS(=O)(=O)c3ccccc3)c2)cc1F | 7 | 0 | 8 | 8 | -7 | 0 | 4 | 4
CC(C)(CNS(C)(=O)=O)SCc1ccc(Cl)cc1 | -1 | 4 | -3 | 10 | 0 | 5 | 3 | -2
CN(C)S(=O)(=O)c1ccc(N2CCCC2)c(C(=O)NCc2ccc(Cl)cc2)c1 | -2 | 2 | -6 | 5 | 0 | 1 | 9 | -7
Cc1ccc(CCNC(=O)c2ccc(CS(=O)(=O)Cc3ccccc3F)o2)cc1 | -1 | 0 | -4 | 45* | 1 | -1 | 5 | 2
CCCCCCN=CC1=C(O)C(C(=O)OC)C(C)(C)CC1=O (stereo not given) | -6 | 1 | -6 | 9 | -2 | 0 | 5 | 1
Cc1ccc(C(=O)N/N=C\c2ccc(OC(=O)c3cccc(F)c3)cc2)cn1 | -13 | -9 | 3 | -9 | -32 | -6 | -4 | -1
O=C(COC(=O)CNS(=O)(=O)c1ccc(F)c(F)c1F)NC1CC1 | -3 | 5 | -9 | 2 | 0 | 1 | 3 | 0
CCc1cc2cc(C)ccc2nc1SCC(=O)N1CCN(C(=O)c2ccco2)CC1 | 4 | -6 | -15 | -1 | -5 | -3 | 5 | 3
Cc1ccc(NS(=O)(=O)c2ccc(NC(=O)N3CCCCC3)cc2)cc1 | -2 | -5 | 1 | 8 | -2 | -6 | -2 | 1
Cc1ccc(CSc2nnc(-c3ccc(NS(=O)(=O)c4ccccc4)cc3)o2)cc1 | -32 | -39 | -1 | 15 | -11 | -13 | -10 | 0
CCOc1ccc(S(=O)(=O)Nc2cc(NS(=O)(=O)c3ccc(OCC)cc3)cc(C(=O)O)c2)cc1 | nt | nt | nt | -1 | 6 | nt | -11 | -6
O=S(=O)(O)c1ccc(N2N=C(c3ccccc3)CC2c2ccccc2)cc1 (stereo not given) | 5 | 8 | 3 | 2 | 2 | 1 | 4 | 6
O=C(/C=C/c1ccc2c(c1)OCO2)NCc1ccco1 | -1 | -1 | -1 | -1 | -5 | 1 | -4 | 6
O=C1c2ccccc2/C(=C\c2ccc3[nH]ccc3c2)N1c1ccccc1 | nt | nt | nt | 3 | -1 | nt | 6 | -2
O=c1[nH]c(SCc2cccc(F)c2)nc2c1CCCC2 | -6 | 1 | 0 | 2 | 20 | -4 | 0 | 5

An excerpt of these results, field by field.
> O=C1c2ccccc2/C(=C\c2ccc3[nH]ccc3c2)N1c1ccccc1
  PME-1 primary = nt	LYPLA2 inh = nt	GSTO1 inh = nt	PAFAH1B2 inh = 3	PAFAH2 FP inh = -1	LYPLA1 inh = nt	PAFAH1B3 inh = 6	PAD4 FP inh = -2

> CN(C)S(=O)(=O)c1ccc(N2CCCC2)c(C(=O)NCc2ccc(Cl)cc2)c1
  PME-1 primary = -2	LYPLA2 inh = 2	GSTO1 inh = -6	PAFAH1B2 inh = 5	PAFAH2 FP inh = 0	LYPLA1 inh = 1	PAFAH1B3 inh = 9	PAD4 FP inh = -7

> O=C(/C=C/c1ccc2c(c1)OCO2)NCc1ccco1
  PME-1 primary = -1	LYPLA2 inh = -1	GSTO1 inh = -1	PAFAH1B2 inh = -1	PAFAH2 FP inh = -5	LYPLA1 inh = 1	PAFAH1B3 inh = -4	PAD4 FP inh = 6

Continuation.
SMILES | PME-1 primary | LYPLA2 inh | GSTO1 inh | PAFAH1B2 inh | PAFAH2 FP inh | LYPLA1 inh | PAFAH1B3 inh | PAD4 FP inh
Cc1cccc(NS(=O)(=O)c2cccc(C(=O)N3CCN(c4ccccn4)CC3)c2)c1 | 7 | 1 | 1 | 1 | 2 | 0 | 9 | 3
COC(=O)C1C(O)=C(C=Nc2ccccc2)C(=O)CC1(C)C (stereo not given) | -6 | 4 | 1 | 6 | 6 | -2 | -2 | -2
Cc1cccc(CSc2nc3c(c(=O)[nH]2)CCCC3)c1 | -7 | -1 | -3 | 0 | 46* | 5 | 8 | -1
COc1ccc(-c2cc(C(F)(F)F)nc(NCc3ccco3)n2)cc1OC | -1 | -5 | -7 | -4 | 1 | -6 | 8 | -3
Cc1ccc(NC(=O)Cc2nc(-c3c[nH]c(C(=O)N4CCCC4)c3)cs2)c(C)c1 | -2 | -1 | nt | 3 | 55* | 0 | 9 | -4
O=C(N/N=C/c1ccc(OC(=O)c2ccccc2)cc1)c1cccc(O)c1 | -20 | -9 | -6 | -3 | -18 | -10 | 1 | 1
Cc1ccc(-c2cc(C(F)(F)F)nn2-c2ccc(S(N)(=O)=O)cc2)cc1 | 1 | 3 | -1 | 4 | -6 | -1 | 9 | 2
CN(C(=O)COC(=O)c1sc2ccccc2c1Cl)C1CCCCC1 | -1 | -5 | -2 | -2 | 2 | -4 | 4 | -7
CC1(C)C2CCC1(CS(=O)(=O)Nc1ccc(S(=O)(=O)NC3CCCCC3)cc1)C(=O)C2 (stereo not given) | 4 | 2 | 3 | 11 | 5 | 0 | 6 | 1
O=C(CCC(=O)c1cccs1)NC(c1ccccc1)c1ccccc1 | -3 | 2 | 7 | -3 | -2 | -1 | 2 | -4
Cc1cc(C)c(-n2c(SCCS(=O)(=O)c3ccc(F)cc3)n[nH]c2=O)c(C)c1 | 4 | 7 | 1 | 24 | 4 | 4 | -2 | 6
Cc1cccc(NS(=O)(=O)c2ccc(C(=O)NCCCN3CCCC3=O)cc2)c1C | 3 | -3 | 7 | 3 | 7 | -1 | -5 | -4
CCCc1ccc(S(=O)(=O)Nc2ccc(C)c(NS(C)(=O)=O)c2)cc1 | -1 | 17 | 5 | nt | nt | -1 | nt | 5
C=CCn1c(N)cc(=O)nc1SCC(=O)Nc1ccc(C)cc1 | 2 | -3 | -3 | -3 | -4 | -2 | -2 | -2
O=C(NCCc1ccccc1)C(c1ccncc1)N(C(=O)c1csnn1)C1CC1 (stereo not given) | -2 | -2 | 6 | 3 | 71* | -3 | 7 | -5
CN(C(=O)CSc1nc2cc([N+](=O)[O-])ccc2n1-c1ccc(F)cc1)C1CCS(=O)(=O)C1 (stereo not given) | -4 | 3 | 5 | 3 | 4 | 3 | 3 | -6
Cc1ccc(NS(=O)(=O)c2cc3c4c(cccc4c2)C(=O)NC3=O)cc1C | 3 | 7 | 5 | 8 | 8 | 7 | 6 | -2
COc1ccccc1N1CCN(C(=O)/C=C/c2ccc3c(c2)OCO3)CC1 | -1 | -7 | 3 | -4 | -2 | -4 | 5 | -2
C=CCNc1nc(C(=O)OCC(=O)Nc2ccccc2C(F)(F)F)cs1 | -1 | -3 | nt | 11 | 16 | 2 | 13 | 1
O=C1CCC/C(=N\NC(=O)c2ccc(COc3ccccc3-c3ccccc3)cc2)C1 | 1 | 2 | -14 | 13 | 0 | -9 | 5 | -2
Cc1ccc(NS(=O)(=O)c2ccc(-c3ccc(=O)[nH]n3)o2)c(C)c1 | 5 | 8 | 6 | -2 | 10 | 3 | -2 | -4
Cc1ccc(C)c(OCC(=O)OCC(=O)Nc2c(C)nn(-c3ccccc3)c2C)c1 | 9 | 1 | 0 | 13 | 4 | 3 | 3 | -1
O=C(COc1ccccc1)N1CCN(C(=O)Cc2ccccc2)CC1 | -9 | -1 | -10 | 3 | 2 | -1 | 3 | 3
Cc1ccc(-n2c(Cc3cccn3C)nnc2SCC(=O)Nc2ccc3c(c2)OCO3)cc1 | 4 | 2 | 1 | 4 | 5 | 0 | 2 | -4
Cc1c(C)c2c(OCC(=O)N3CCC(C(N)=O)CC3)cc3c(c2oc1=O)CCC(C)(C)O3 | 3 | 6 | -7 | -4 | 75* | -3 | 9 | 2
CC1=C(C(=O)OCC(Cl)(Cl)Cl)N2C(=O)C(NC(=O)Cc3ccccc3)C2SC1 (stereo not given) | -11 | -3 | 1 | 10 | 10 | -1 | -2 | -5
CO/N=C(\CS(=O)(=O)Cc1ccc(OC)cc1)c1ccc(Cl)cc1 | -1 | 0 | 2 | -3 | -3 | 0 | 5 | -2
COc1ccc(NS(=O)(=O)c2ccc(N3CCCC3)c(NC(=S)Nc3cccc(C)c3C)c2)cc1 | 20 | -9 | 2 | 4 | 9 | -3 | -1 | 2
Cc1ccc(C)c(Sc2ccc(S(=O)(=O)Nc3ccc(C(=O)O)cc3)cc2)c1 | 6 | 15 | nt | 18 | 4 | 2 | 4 | -2
CCCOC(=O)c1ccc(OC(=O)c2ccco2)cc1 | -3 | 8 | -4 | 6 | 7 | 3 | -12 | 0
CSCC[C@H](NC(=O)COc1cc2c(c3oc(=O)c(C)c(C)c13)CCC(C)(C)O2)C(=O)O | 4 | 7 | 2 | 62* | 68* | 3 | 0 | -1
Cc1cccc(NS(=O)(=O)c2cc(C(=O)OC(C)C(=O)NCc3ccc4c(c3)OCO4)ccc2C)c1 (stereo not given) | -3 | -17 | -7 | 6 | -7 | -14 | 2 | -4
Cc1c(F)cccc1NS(=O)(=O)c1ccc2c(c1)c(=O)n(C)c(=O)n2C | 1 | -4 | 0 | 0 | 8 | 0 | -1 | 4
COC(=O)CSC1=C(C#N)C(=O)NC2(CCCCC2)S1 | 5 | -7 | 7 | -6 | 6 | -3 | -1 | -8
Cc1ccc(NS(=O)(=O)c2ccc(OCC(=O)NCC3CCCO3)cc2)cc1 (stereo not given) | -4 | -1 | -3 | 16 | 5 | -4 | 2 | 3
CCOC(=O)c1cc(C(=O)NN)c(=O)[nH]c1C | 0 | 1 | 7 | 1 | -4 | 3 | 7 | -1
COc1ccc2c(c1)c(CC(=O)OC(C)C(=O)N(C)C)c(C)n2C(=O)c1ccc(Cl)cc1 (stereo not given) | 0 | 2 | -2 | 8 | -9 | -1 | -4 | 2
CC(=O)Nc1ccc(Oc2sc(C(=O)c3ccccc3)c(N)c2C#N)cc1 | 8 | 8 | -81 | 1 | -5 | 0 | 4 | -5

Single records, from the list above:
CCOC(=O)c1cc(C(=O)NN)c(=O)[nH]c1C across the screens: PME-1 primary = 0; LYPLA2 inh = 1; GSTO1 inh = 7; PAFAH1B2 inh = 1; PAFAH2 FP inh = -4; LYPLA1 inh = 3; PAFAH1B3 inh = 7; PAD4 FP inh = -1
COc1ccc2c(c1)c(CC(=O)OC(C)C(=O)N(C)C)c(C)n2C(=O)c1ccc(Cl)cc1 (stereo not given) across the screens: PME-1 primary = 0; LYPLA2 inh = 2; GSTO1 inh = -2; PAFAH1B2 inh = 8; PAFAH2 FP inh = -9; LYPLA1 inh = -1; PAFAH1B3 inh = -4; PAD4 FP inh = 2

Assay outcomes deposited in PubChem BioAssay by The Scripps Research Institute Molecular Screening Center.

Not all compounds are listed. The share of hits here may be higher or lower than overall.
